Compound activity (PubChem)
BJeLR viab HTS – BJeLR cell viability reduction; BJeLR fibroblasts viability, CellTiterGlo ATP luminescence, 48 h; HRASV12, hTERT and SV40 LT/ST transformed; viability loss activity score, % (concentration not given with the values); actives 0.64% (n = 30,000); AID 2275; in the data active means viability loss activity score above about 50%; about a fifth of its hits are not listed in these tables;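 further: higher score means fewer live cells and less ATP luminescence; stock transfer was 50 or 100 nL into about 30 µL; 0% = vehicle wells and 100% = a reference killing control; one replicate is shown; the record names a cut of 85%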
A1 inhib – blocks A1 activity; actives 0.51% (n = 21,000); MEF A1-2A-BIM cells, caspase-Glo luminescence, 3 h; percent of clofoctol signal, DMSO as zero; AID 2241; caspase activation, % (concentration not given with the values);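 active means most replicate scores above 10, or exactly half above 10 with mean activity above 10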;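 further: effector caspase 3 and 7 activity cleaving a DEVD luciferin substrate; 50 nL library stock added to about 30 µL; numbers are from one replicate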
An asterisk follows results filed as active; / = no result given. An excerpt; rates above refer to the full screens.

SMILES	BJeLR viab HTS	A1 inhib
COc1ccc(OCCSc2ncnc3nc[nH]c23)cc1	8.0	-2.0
COC(=O)NCC12CC3CC(CC(C3)C1)C2	-2.6	0.1
COC(=O)c1cc(S(=O)(=O)N(C)C2CCCCC2)cn1C	8.6	0.5
CC(C)=CCc1c(O)cc(O)c2c1O[C@H](c1ccccc1)CC2=O	1.8	23*
COc1ccc(NC(=O)N(C)C[C@H]2Oc3c(NC(=O)c4ccncc4)cccc3C(=O)N([C@H](C)CO)C[C@@H]2C)cc1	1.1	/
N#C/C(=C(\O)COc1ccccc1)c1nc2ccccc2[nH]1	-1.2	0.4
Cc1cc(C(=O)Nc2cccc3c2O[C@@H](CN(C)C)[C@@H](C)CN([C@H](C)CO)C3=O)n(C)n1	1.3	/
Nc1nnnn1/N=C\C=C\c1ccccc1	2.4	-3.0
COc1ccccc1CNS(=O)(=O)c1cccs1	-0.9	/
c1ccn2cc(C34CC5CC(CC(C5)C3)C4)nc2c1	-7.1	-0.3
COC(=O)c1cc(O)cc(O)c1C(=O)c1c(O)cc(C)cc1O	-5.7	-0.3
CCN1C2=C(C(=O)CC(C)(C)C2)C(c2ccc(OC)cc2)C2=C1CC(C)(C)CC2=O	-2.5	0.1
COc1ccc(S(=O)(=O)N(C)C[C@H]2Oc3c(NS(=O)(=O)c4cn(C)cn4)cccc3C(=O)N([C@H](C)CO)C[C@H]2C)cc1	-2.4	/
NC(=O)c1ccc(Nc2nc(=S)[nH]c3ccccc23)cc1	0.2	-0.4
FC(F)(F)c1ccc2cc(CSc3ccc(Cl)cc3)ccc2n1	-4.6	-0.5
CC(NC(=O)Cn1ncc2ccsc2c1=O)C12CC3CC(CC(C3)C1)C2 (stereo not given)	0.1	/
O=C(COc1ccccc1OC(=O)c1ccc(Cl)cc1)NCc1ccccc1Cl	0.7	-0.2
C[C@@H]1CN([C@H](C)CO)C(=O)c2cc(NS(C)(=O)=O)ccc2O[C@@H]1CN(C)S(C)(=O)=O	-0.4	0.6
COc1ccc(NC(=O)N(C)C[C@@H]2Oc3ccc(NS(=O)(=O)c4ccc(C)cc4)cc3C(=O)N([C@H](C)CO)C[C@H]2C)cc1	-5.1	0.4
C[C@@H]1CN([C@@H](C)CO)C(=O)c2cccc(NS(=O)(=O)c3ccc(Cl)cc3)c2O[C@H]1CN(C)S(=O)(=O)c1ccc(F)cc1	5.2	/
CC(Sc1ncnc2nc[nH]c12)c1ccccc1Cl (stereo not given)	-2.7	0.6
C[C@H](CO)N1C[C@H](C)[C@@H](CN(C)S(=O)(=O)c2ccc(F)cc2)Oc2ccc(NC(=O)Cc3ccccc3)cc2C1=O	-0.9	-0.4
COc1ccccc1OCCNC(=O)c1ccc(S(=O)(=O)N(C)C)cc1	-6.5	1.3
Cn1nc(SCC(=O)N2c3ccccc3CCc3ccccc32)sc1=S	8.2	0.1
Cc1nc2c(C(=O)N3CCC4(CC3)OCCO4)c[nH]n2c(=O)c1Cc1ccccc1Cl	1.5	0.0
O=C(NC1CCCC1)C1COc2ccccc2O1 (stereo not given)	-0.7	/
O=C(O)C1C2C=CC(C2)C1C(=O)NCc1ccc2c(c1)OCO2 (stereo not given)	3.9	/
S=c1[nH]nc(-c2ccncc2)n1Cc1ccccc1	-4.1	-0.1
CCOC(=O)N1CCC(NC(=O)c2nn(-c3ccc(C)cc3)c(=O)c3c2c2ccccc2n3C)CC1	-1.9	/
C[C@@H]1CN([C@H](C)CO)C(=O)c2cc(NC(=O)Nc3ccc4c(c3)OCO4)ccc2O[C@H]1CN(C)Cc1ccc(Cl)c(Cl)c1	1.2	0.3
Cc1noc(C)c1NC(=O)N(C)C[C@@H]1Oc2c(NC(=O)C3CCCCC3)cccc2C(=O)N([C@@H](C)CO)C[C@@H]1C	1.3	/
CCCCN(CC)C(=O)c1sc2ncnc(N3CCN(c4ccc(OC)cc4)CC3)c2c1C	0.9	-0.2
COC(=O)C1=CO[C@@H](O[C@@H]2O[C@H](CO)[C@@H](O)[C@H](O)[C@H]2O)[C@@H]2[C@@H]3CN4CCc5c([nH]c6ccccc56)[C@]4(C[C@H]12)O3	-1.4	0.3
O=S(=O)(NCc1csc2ccc(Cl)cc12)c1cc(S(=O)(=O)c2ccccc2)cs1	1.4	-0.3
Cc1noc(C)c1NC(=O)Nc1cccc2c1O[C@H](CN(C)S(=O)(=O)c1cccs1)[C@H](C)CN([C@H](C)CO)C2=O	2.6	/
CC(C)NC(=O)N(C)C[C@H]1Oc2c(NS(C)(=O)=O)cccc2C(=O)N([C@H](C)CO)C[C@@H]1C	-0.3	/
C[C@@H]1CN([C@H](C)CO)C(=O)c2cccc(N(C)C)c2O[C@@H]1CN(C)S(=O)(=O)c1cn(C)cn1	1.2	/
O=C(Cc1ccc(Cl)cc1)N1CCN(c2ccc(F)cc2)CC1	1.6	0.6
CN1C(=O)c2ccccc2NC(=O)[C@]12O[C@@H]2c1cccc(O)c1	-6.7	0.5
O=c1cc(-c2ccc(O)c(O)c2)oc2cc(O)c(C3OC(CO)C(O)C(O)C3O)c(O)c12 (stereo not given)	3.5	0.7
C[C@H]1CN([C@@H](C)CO)C(=O)c2cc(NS(=O)(=O)c3ccccc3)ccc2O[C@@H]1CN(C)C(=O)Nc1ccc2c(c1)OCO2	-0.5	0.2
CC(=O)N(CN1C(=O)c2ccccc2C1=O)c1ccc2ccccc2c1	-5.3	1.0
Cc1noc(C)c1NC(=O)Nc1ccc2c(c1)C(=O)N([C@@H](C)CO)C[C@@H](C)[C@H](CN(C)Cc1ccccc1)O2	0.4	0.4
Cc1ccc(N2C(=O)C(C=NCc3ccc(C(=O)O)cc3)C(=O)NC2=S)cc1 (stereo not given)	-4.3	0.2
CC(C)NC(=O)Nc1ccc2c(c1)C(=O)N([C@@H](C)CO)C[C@H](C)[C@@H](CN(C)C(=O)NC(C)C)O2	1.8	-1.0

Overlap with the part before: four entries; new compounds follow.
SMILES	BJeLR viab HTS	A1 inhib
CC(=O)N(CN1C(=O)c2ccccc2C1=O)c1ccc2ccccc2c1	-5.3	1.0
Cc1noc(C)c1NC(=O)Nc1ccc2c(c1)C(=O)N([C@@H](C)CO)C[C@@H](C)[C@H](CN(C)Cc1ccccc1)O2	0.4	0.4
Cc1ccc(N2C(=O)C(C=NCc3ccc(C(=O)O)cc3)C(=O)NC2=S)cc1 (stereo not given)	-4.3	0.2
CC(C)NC(=O)Nc1ccc2c(c1)C(=O)N([C@@H](C)CO)C[C@H](C)[C@@H](CN(C)C(=O)NC(C)C)O2	1.8	-1.0
c1ccc2[nH]c(Nn3cnnc3)nc2c1	6.0	/
CC(C)N1CCC(=O)N(c2ccccc2)C1=O	3.5	0.2
C[C@@H]1CN([C@@H](C)CO)C(=O)c2cc(NC(=O)Cn3cnnn3)ccc2O[C@@H]1CN(C)S(=O)(=O)c1cn(C)cn1	1.4	-0.7
Cc1ccc(S(=O)(=O)N(C)C[C@@H]2Oc3c(NS(=O)(=O)c4ccc(Cl)cc4)cccc3C(=O)N([C@H](C)CO)C[C@H]2C)cc1	0.8	/
Cc1ccc(S(=O)(=O)N(C)C[C@@H]2Oc3c(cccc3N(C)C)C(=O)N([C@H](C)CO)C[C@@H]2C)cc1	3.9	/
Cc1noc(C)c1S(=O)(=O)Nc1ccc2c(c1)C(=O)N([C@H](C)CO)C[C@H](C)[C@H](CN(C)C(=O)Nc1ccc3c(c1)OCO3)O2	-6.0	0.7
Cc1cccc(C(=O)N2CCOCC2)c1	-5.0	-0.1
COc1ccc(S(=O)(=O)N(C)C[C@H]2Oc3ccc(NS(=O)(=O)c4ccccc4)cc3C(=O)N([C@H](C)CO)C[C@H]2C)cc1	2.5	-0.5
C[C@@H]1CN([C@H](C)CO)C(=O)c2cc(NS(=O)(=O)c3ccc(F)cc3)ccc2O[C@@H]1CN(C)Cc1ccc(Oc2ccccc2)cc1	-0.2	0.2
C[C@@H]1CN([C@@H](C)CO)C(=O)c2cc(NC(=O)NC3CCCCC3)ccc2O[C@@H]1CN(C)S(=O)(=O)c1ccc(Cl)cc1	-4.7	0.8
C[C@H]1CN([C@@H](C)CO)C(=O)c2cccc(NC(=O)Nc3ccccc3)c2O[C@H]1CN(C)S(=O)(=O)c1cccs1	-7.4	/
C[C@@H]1CN([C@@H](C)CO)C(=O)c2cc(NS(=O)(=O)c3cccs3)ccc2O[C@@H]1CN(C)Cc1ccc2c(c1)OCO2	1.9	0.1
CC(C)COC(=O)Cn1cnc2ccc(Br)cc2c1=O	3.1	0.6
COc1ccc(CN(C)C[C@H]2Oc3ccc(NC(=O)Cc4cn(C)c5ccccc45)cc3C(=O)N([C@@H](C)CO)C[C@H]2C)cc1	0.1	-0.1
CCCCN1C(=O)/C(=C2/Sc3ccc(OC)cc3N2C)SC1=S	-0.4	0.4
CN(C(=O)CSc1cc(=O)n(C)c2ccccc12)C1CCCCC1	1.2	/
C[C@@H]1CN([C@@H](C)CO)C(=O)c2cc(NS(=O)(=O)c3ccc(Cl)cc3)ccc2O[C@@H]1CN(C)C(=O)Nc1ccccc1	0.8	0.4
CC(=O)N1CCC(N(C(=O)Nc2ccccc2)C(C)C)CC1	1.5	-1.7
O=C1Nc2ccccc2C(O)(C(=O)NC2CC2)N1c1ccccc1 (stereo not given)	-4.8	/
CC(C)NC(=O)Nc1cccc2c1O[C@@H](CN(C)Cc1ccc3c(c1)OCO3)[C@@H](C)CN([C@H](C)CO)C2=O	-2.8	/
FC(F)(F)c1ccc(CSc2c[nH]c3ccccc23)cc1	2.3	2.2
O=C(CSc1nc2ccccc2nc1SCC(=O)N1CCCCC1)N1CCCCC1	0.9	-0.4
C[C@@H]1CN([C@@H](C)CO)C(=O)c2cc(NC(=O)NC3CCCCC3)ccc2O[C@H]1CN(C)Cc1ccncc1	2.4	0.0
O=C(Nc1cc(Cl)ccc1Cl)c1cc(S(=O)(=O)NC2CCCC2)ccc1F	-0.5	-2.0
Cn1c(-c2cc(Br)cs2)nc(=O)c2cc(Cl)ccc21	-5.4	-1.5
CC(=O)Nc1ccc(/C=C2\CCc3ccccc3C2=O)cc1	-0.9	-2.4
COc1ccc(S(=O)(=O)Nc2ccc3c(c2)C(=O)N([C@@H](C)CO)C[C@@H](C)[C@H](CN(C)Cc2ccc(Cl)c(Cl)c2)O3)cc1	1.9	0.2
Cc1noc(C)c1NC(=O)Nc1cccc2c1O[C@H](CN(C)C(=O)Nc1ccc(F)cc1)[C@H](C)CN([C@@H](C)CO)C2=O	-1.6	/
C[C@H]1CN([C@@H](C)CO)C(=O)c2cc(NC(=O)Cn3cnnn3)ccc2O[C@@H]1CN(C)Cc1ccc(C(=O)O)cc1	-5.6	0.4
Cc1noc(C)c1NC(=O)Nc1cccc2c1O[C@H](CN(C)S(=O)(=O)c1cn(C)cn1)[C@H](C)CN([C@H](C)CO)C2=O	-1.7	/
CC1CCc2nc3ccc(S(=O)(=O)N4CCC(C(=O)N5CCCC5)CC4)cc3c(C(=O)O)c2C1 (stereo not given)	-2.4	/
COC(=O)c1cc(S(=O)(=O)N2CCOCC2)cn1C	-3.7	1.6
O=S(=O)(Cc1ccccc1)NCc1ccccc1	7.7	-0.8
C[C@@H]1CN([C@@H](C)CO)C(=O)c2cc(NS(C)(=O)=O)ccc2O[C@H]1CN(C)CC1CC1	-5.9	0.2
CC(C)c1ccccc1NC(=O)c1cc2ccccc2o1	0.0	-2.1
Cc1cc(Br)cc2c1N(C)C(=O)/C2=C1\SC(=Nc2ccc(F)cc2)NC1=O	-0.5	0.7
CCc1ccc(NS(=O)(=O)c2ccc3c(c2)OCCN3C(C)=O)cc1	3.2	-0.1
Cc1noc(C)c1NC(=O)Nc1cccc2c1O[C@H](CN(C)CC1CC1)[C@@H](C)CN([C@H](C)CO)C2=O	0.7	/
C[C@H]1CN([C@@H](C)CO)C(=O)c2cccc(NC(=O)C3CCCCC3)c2O[C@H]1CN(C)S(=O)(=O)c1cn(C)cn1	1.4	/
CC1(C)CC[C@]2(C(=O)O)CC[C@]3(C)C(=CCC4[C@@]5(C)CC[C@H](O[C@@H]6OC[C@H](O)[C@H](O)[C@H]6O)[C@@](C)(CO)C5CC[C@]43C)C2C1 (stereo not given in full)	-2.1	0.2
C[C@H](CO)N1C[C@H](C)[C@H](CN(C)S(=O)(=O)c2cn(C)cn2)Oc2c(NC(=O)Nc3ccc(C(F)(F)F)cc3)cccc2C1=O	0.7	/
C[C@H](CO)N1C[C@H](C)[C@H](CN(C)S(=O)(=O)c2ccccc2)Oc2ccc(NS(=O)(=O)c3ccc(Cl)cc3)cc2C1=O	-2.1	0.2
Cc1noc(C)c1S(=O)(=O)N(C)C[C@H]1Oc2c(NC(=O)C3CC3)cccc2C(=O)N([C@@H](C)CO)C[C@H]1C	-3.2	/
COC(CNC(=O)c1ccc(CNC(=O)c2cccc(Br)c2)cc1)OC	11	0.1
C[C@@H]1CN([C@H](C)CO)C(=O)c2cc(NC(=O)c3ccncc3)ccc2O[C@@H]1CN(C)C(=O)Nc1cccc2ccccc12	2.0	-0.1
N#Cc1cn(C2CC2)c(=O)n(Cc2ccccc2)c1=O	3.5	0.5
O=C1Nc2ccccc2S/C1=C\c1cccc(Cl)c1	11	-1.0

By substructure: the compounds so far with a COOH group.
SMILES	BJeLR viab HTS	A1 inhib
O=C(O)C1C2C=CC(C2)C1C(=O)NCc1ccc2c(c1)OCO2 (stereo not given)	3.9	/
Cc1ccc(N2C(=O)C(C=NCc3ccc(C(=O)O)cc3)C(=O)NC2=S)cc1 (stereo not given)	-4.3	0.2
C[C@H]1CN([C@@H](C)CO)C(=O)c2cc(NC(=O)Cn3cnnn3)ccc2O[C@@H]1CN(C)Cc1ccc(C(=O)O)cc1	-5.6	0.4
CC1CCc2nc3ccc(S(=O)(=O)N4CCC(C(=O)N5CCCC5)CC4)cc3c(C(=O)O)c2C1 (stereo not given)	-2.4	/
CC1(C)CC[C@]2(C(=O)O)CC[C@]3(C)C(=CCC4[C@@]5(C)CC[C@H](O[C@@H]6OC[C@H](O)[C@H](O)[C@H]6O)[C@@](C)(CO)C5CC[C@]43C)C2C1 (stereo not given in full)	-2.1	0.2
